Compound activity deposited in PubChem by several laboratories.
PrP 5UTR inh = suppresses PrP 5' UTR mRNA reporter expression. cell-based PrP 5' UTR mRNA reporter, plate reader. inhibition, % (test concentration not listed). 0.35% of 340,000 active. AID 488862;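 active means every replicate at 50% or more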;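 further: 0 = median of the neutral control wells; tested in H4 reporter cells; numbers are from one replicate; inactives centre near -14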
Mtb hypoxia inh = Mtb hypoxia fluorescent reporter inhibition | M. tuberculosis hypoxia-regulated fluorescent reporter, fluorescence | 0.1% of 300,000 active | fluorescence inhibition, % (no concentration beside the values);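 active means 35 to 45% if threefold the growth effect, above 45% if 1.5-fold the growth effect; inactive means the rest, general growth blockers included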;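 further: wells of about 50 µL received 100 nL stock; 0% = vehicle wells and 100% = reference inhibitor wells; whole bacteria with a GFP reporter of the hypoxia response; strong numbers were not always called active; many hits fall short of the cut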
BJeLR viability = kills HRASV12-expressing BJeLR cells | BJeLR (HRASV12) viability, CellTiter-Glo ATP luminescence, 48 h; reference of the scale not given here | inhibition, % (test concentration not listed) | 0.17% of 300,000 active | AID 1554;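 active means replicate mean above 50%; inconclusive means above 50% but judged a plate artefact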;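 further: 50 nL library stock added to about 25 µL; numbers are from one replicate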
Sa ugtP lethal = growth inhibition of S. aureus ugtP deletion strain; AID 1259309; 0.54% of 330,000 active; growth inhibition, % (no concentration beside the values); S. aureus RN4220 ugtP deletion, OD600 growth, 16 h; some inactives read as strong as hits;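 active means z-score under -3 and OD600 up to 0.15 on both plates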;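 further: plate controls were untreated wells for no effect and antibiotic for full effect; wells of about 80 µL received 100 nL stock; the first replicate is given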
Autofluor counter = compound fluorescence in toxin protease inhibitor counterscreen | compound autofluorescence counterscreen, microsphere flow cytometry; stronger effect = higher value | fluorescence intensity (concentration not given with the values) | 3.1% of 360,000 active | AID 624483;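 active means at least 3 SD above the mean of all compounds, about 16000 in these data; inconclusive means too few beads counted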;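 further: 100 nL of 1 mM stock went into each well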
RN4220 kill = kills Staphylococcus aureus RN4220. S. aureus RN4220 growth, OD600, 16 h. inhibition, % (test concentration not listed). 0.33% of 330,000 active. AID 1259311;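 active means z-score of -3 or lower and OD600 up to 0.18 on both plates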;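 further: plate controls were untreated cells for no effect and reference antibiotic for full effect; stock transfer was 100 nL into about 80 µL; one replicate is shown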
Mtb hypoxia inh growth = also measured in Mtb hypoxia inh; calls as there; growth inhibition, %; measured here: M. tuberculosis growth (absorbance);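 0% = vehicle and 100% = reference antibiotic; read after six days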
Starred values were filed as active, the others as inactive; ? = inconclusive; / = no result given.

Keys – A = PrP 5UTR inh; B = Mtb hypoxia inh; C = Mtb hypoxia inh growth; D = BJeLR viability; E = Sa ugtP lethal; F = Autofluor counter; G = RN4220 kill
[1] O=C(NCc1ccncc1)C1CCCN1S(=O)(=O)c1ccc(Cl)cc1 (stereo not given)
  A: -30.4; B: /; C: /; D: -4.9; E: /; F: 5429; G: /
[2] C#CCSc1nnnn1-c1ccc(OCC)cc1
  A: -5.2; B: 9.8; C: 4.0; D: -0.5; E: 6.5; F: 5519; G: 4.2
[3] CCC(=O)c1ccc(NC(C)=O)cc1O
  A: -15.4; B: 1.7; C: 9.2; D: -10.5; E: 16.7; F: /; G: 5.5
[4] O=C(Cn1nc(C(F)F)cc1C(F)F)NNC(=S)Nc1ccc([N+](=O)[O-])cc1
  A: -28.7; B: 6.5; C: 5.9; D: 1.1; E: 2.0; F: 4860; G: 3.2
[5] COCCCN1C(=O)c2[nH]nc(-c3ccccc3O)c2C1c1ccc(Cl)cc1 (stereo not given)
  A: -16.5; B: 12.8; C: 1.4; D: -1.3; E: -1.7; F: ?; G: 2.7
[6] COc1cc(NC(=S)N2CCN(C(=O)C3CCCO3)CC2)c(OC)cc1Cl (stereo not given)
  A: -5.5; B: 0.5; C: 7.4; D: 1.2; E: 2.4; F: 2553; G: 0.2
[7] CCCn1c(SC(C(=O)Nc2cccc(OC)c2)c2ccccc2)nc2ccccc2c1=O (stereo not given)
  A: -9.7; B: 9.2; C: -1.2; D: 0.0; E: 27.0; F: 2559; G: 25.3
[8] Cc1ccc(S(=O)(=O)N2CCC(C(=O)C3C(=O)CC(C)(C)CC3=O)CC2)cc1
  A: -13.0; B: 4.5; C: 2.2; D: 0.2; E: 18.8; F: 1979; G: 8.2
[9] CCOCCCNC(=O)C(c1ccc(Cl)cc1)N1CCN(c2ccccc2)CC1 (stereo not given)
  A: 1.1; B: 1.3; C: 3.8; D: -10.2; E: -1.0; F: 5872; G: 3.5
[10] CCOC(=O)c1cnc(SCCc2ccccc2)nc1N
  A: -100.4; B: 9.8; C: 5.9; D: 8.0; E: -3.2; F: 6383; G: 11.3
[11] CC1CN(C(=O)Nc2ccc3c(c2)OCO3)CC(C)O1 (stereo not given)
  A: -30.1; B: 1.1; C: 10.2; D: 2.6; E: -3.3; F: 20354*; G: -4.2
[12] C/C(C=Nn1c(-c2ccco2)n[nH]c1=S)=C\c1ccccc1
  A: /; B: 3.4; C: 2.7; D: /; E: -7.0; F: /; G: 20.8
[13] CCC(Oc1ccccc1)C(=O)Nc1ccc(S(=O)(=O)N2CCOCC2)cc1 (stereo not given)
  A: -10.7; B: 5.6; C: 4.1; D: -3.7; E: 0.7; F: 11513; G: 4.4
[14] COc1ccc2cc(C(=O)NCCc3ccccc3)[nH]c2c1
  A: -29.4; B: 8.6; C: 0.4; D: 7.2; E: -4.0; F: 3744; G: 0.4
[15] CC(C)Cc1nnc(NC(=O)CCC(=O)N2CCN(Cc3ccc(F)cc3)CC2)s1
  A: -17.9; B: 3.0; C: -5.0; D: 5.7; E: 8.1; F: 4162; G: 0.4
[16] COc1nc(/C=C/N(C)C)c([N+](=O)[O-])c(OC)n1
  A: -14.7; B: 2.8; C: 3.1; D: -4.2; E: 3.5; F: 4601; G: 3.1
[17] Clc1ccc(CSc2nnc(CNc3cccc(Cl)c3)o2)cc1
  A: -6.8; B: -9.7; C: 4.1; D: -4.8; E: -29.3; F: 8001; G: -5.5
[18] O=C(CNCc1ccccn1)Nc1cc(S(=O)(=O)N2CCCCC2)ccc1Cl
  A: 9.7; B: 0.1; C: 9.4; D: 7.3; E: 0.5; F: 4461; G: 3.9
[19] Cc1csc(NC(=O)CS(=O)(=O)c2ccccc2)n1
  A: -17.8; B: 9.4; C: -4.5; D: -1.2; E: 2.4; F: 3290; G: 2.0
[20] CCOC(=O)c1c(NC(=O)CSc2cn(CC)c3ccccc23)sc2c1CCC2
  A: -23.3; B: -0.4; C: -2.0; D: 5.0; E: 13.7; F: 6484; G: 7.8
[21] O=C(NCc1cccnc1)c1ccccc1CCc1ccccc1
  A: -11.1; B: 1.0; C: 3.5; D: -0.6; E: 14.9; F: 3115; G: 1.8
[22] Cc1cccc(/N=C/c2c(C)[nH]n(-c3ccccc3)c2=O)n1
  A: -13.1; B: /; C: /; D: 1.4; E: /; F: ?; G: /
[23] COc1ccc(/C=C/C(=O)Nc2c(C)nn(C)c2C)cc1COc1ccc(Cl)cc1Br
  A: -3.6; B: 3.0; C: 8.1; D: -3.4; E: -9.6; F: 10236; G: 0.8
[24] CCCCCCc1ccc(N2CC(Cc3ccccc3)C(CC(=O)NCc3ccc(OC)cc3)C2=O)cc1 (stereo not given)
  A: /; B: 8.9; C: 12.3; D: /; E: 6.2; F: /; G: -6.3
[25] CCOC(=O)C1(CCC(C)C)CC(CSc2nc3ccccc3[nH]2)OC1=O (stereo not given)
  A: -13.7; B: 3.6; C: 7.0; D: -1.4; E: 1.6; F: 5812; G: 5.0
[26] COc1ccc(N2C(=O)c3cccc4cccc(c34)C2=O)cc1
  A: -14.7; B: 12.7; C: 9.0; D: -11.1; E: 1.6; F: 3095; G: 3.5
[27] CC1=C(C(=O)Nc2ccccc2C(=O)NCc2ccccc2)SCCO1
  A: -3.8; B: 3.6; C: 10.4; D: -2.2; E: 2.2; F: 5720; G: 4.1
[28] CCOC(=O)c1cnc(SC)nc1Sc1ccccc1
  A: -2.5; B: /; C: /; D: -0.4; E: 37.7; F: 2432; G: -5.8
[29] CCN(CC)CCNC(=O)c1ccc(NC(=O)C2CC(=O)N(c3ccc4c(c3)OCCO4)C2)cc1 (stereo not given)
  A: -2.5; B: 12.4; C: 3.8; D: 10.5; E: 18.2; F: 7067; G: 6.5
[30] COc1ccccc1S(=O)(=O)Cc1ccc(C(=O)N2CCCC2)o1
  A: -16.9; B: /; C: /; D: 0.0; E: -10.3; F: 5117; G: 5.4
[31] Cc1ccc2nc(-c3cccc(Br)c3)cc(C(=O)Nn3cnnc3)c2c1
  A: -2.6; B: -4.3; C: -7.2; D: -12.5; E: 6.1; F: 5102; G: 13.1
[32] Cc1[nH]n(-c2ccccc2)c(=O)c1/C=N/NC(=O)COc1ccccc1[N+](=O)[O-]
  A: -15.3; B: /; C: /; D: 10.4; E: /; F: 2578; G: /
[33] Cc1ccc(-c2nc(-c3cccnc3)sc2CC(=O)Nc2ccc(C)c(Cl)c2)cc1
  A: 3.9; B: -11.7; C: 7.9; D: 9.3; E: -31.4; F: 3551; G: -12.2
[34] O=C(COc1cccc(Cl)c1)NNC(=S)Nc1ccccc1
  A: -7.1; B: -2.1; C: -2.5; D: -11.7; E: 0.3; F: 2045; G: 5.1
[35] O=C(NC1CC2CCCC(C1)N2Cc1ccccc1)C1CCCCC1 (stereo not given)
  A: -22.1; B: 12.8; C: 8.1; D: -0.8; E: -1.9; F: 3510; G: 6.0
[36] Cc1ccccc1-n1nc(C)c2cc(C(=O)N3CCN(S(=O)(=O)c4ccccc4)CC3)sc21
  A: -14.6; B: 9.0; C: 4.8; D: /; E: 0.6; F: 9980; G: 5.5
[37] S=C(Nc1cccc(Cl)c1)Nc1cccc2cnccc12
  A: -9.1; B: -2.8; C: -1.7; D: /; E: -27.5; F: 1735; G: -10.7
[38] Cn1c(=O)c2c(ncn2CC(=O)Nc2nccs2)n(C)c1=O
  A: -20.9; B: 12.8; C: 0.2; D: 0.8; E: 5.3; F: 6204; G: 0.2
[39] Cc1cc(C)c2c(c1)C(=NNC(=O)c1cc(C)oc1C)CCC2
  A: /; B: 19.7; C: 1.7; D: /; E: -7.9; F: /; G: 1.2
[40] CN(CC(=O)O/N=C(\N)c1ccc([N+](=O)[O-])cc1)S(=O)(=O)c1ccc2ccccc2c1
  A: -26.9; B: 10.0; C: 1.9; D: 8.0; E: -19.9; F: 16000; G: 4.7
[41] CCOC(=O)Cn1c(=O)c2c(nc3n2CCCN3Cc2ccccc2)n(C)c1=O
  A: -10.8; B: 16.4; C: 9.9; D: 2.1; E: 6.3; F: 3982; G: 2.2
[42] NC(=O)CSc1nnc(CNc2cccc(Cl)c2)n1CCc1ccccc1
  A: -0.9; B: 10.5; C: 11.1; D: -0.5; E: 7.3; F: 3273; G: 6.5
[43] Cc1cc(C)c(C)c(S(=O)(=O)N[C@@H](C)C(=O)OCC(=O)NC2CCCC(C)C2C)c1C (stereo not given in full)
  A: -10.6; B: 5.6; C: -5.5; D: /; E: -6.8; F: 2926; G: 11.3
[44] COc1ccc(C(=O)C2CCCN(C3CSCCSC3)C2)c(OC)c1 (stereo not given)
  A: -29.7; B: /; C: /; D: -1.4; E: /; F: 4875; G: /
[45] O=S(=O)(NCc1cc(-c2ccc(Cl)cc2)no1)c1ccc(Cl)cc1
  A: -23.3; B: 5.5; C: 7.2; D: -1.3; E: -2.0; F: 4262; G: 3.3
[46] COc1ccc(Cl)cc1NC(=O)CN(C)C(=O)c1sccc1-c1ccccc1
  A: -9.0; B: 4.0; C: 12.1; D: /; E: 0.6; F: 8571; G: 5.0
[47] S=c1[nH]nc(COc2ccccc2)n1/N=C/c1ccco1
  A: -23.4; B: /; C: /; D: 13.6; E: /; F: 2533; G: /
[48] CC(c1nccs1)N(C)C(=O)CCc1nnc(-c2ccc(-c3ccccc3)cc2)o1 (stereo not given)
  A: -6.2; B: 2.0; C: 16.8; D: -3.7; E: -3.2; F: 3867; G: 0.8
[49] CCCCC(=O)Nc1ccc(C(=O)NNC(=O)c2ccccc2Br)cc1
  A: 3.2; B: -3.0; C: 1.0; D: 10.1; E: 3.7; F: 7919; G: 3.3
[50] Cc1ccc(S(=O)(=O)N[C@@H](C)C(=O)OCC(=O)N2c3ccccc3NC(=O)C2(C)C)cc1
  A: -18.6; B: 10.0; C: 6.2; D: /; E: 6.2; F: 8682; G: 7.6

Next section.
Keys – A = PrP 5UTR inh; B = Mtb hypoxia inh; C = Mtb hypoxia inh growth; D = BJeLR viability; E = Sa ugtP lethal; F = Autofluor counter; G = RN4220 kill
[51] CC12c3ccccc3C(c3ccccc31)C1C(=O)N(Cc3cccnc3)C(=O)C12 (stereo not given)
  A: -4.2; B: -5.6; C: -11.0; D: 2.5; E: -4.9; F: 10396; G: -0.4
[52] COc1ccccc1CNC(=O)C1CC(c2ccc([N+](=O)[O-])cc2)=NO1 (stereo not given)
  A: -32.3; B: 6.0; C: 6.8; D: 5.9; E: 8.6; F: 4456; G: 2.3
[53] CC(=O)c1ccc(C(=O)N2CCCC(CCC(=O)N(C)CCc3ccccn3)C2)s1 (stereo not given)
  A: -23.3; B: 7.0; C: 3.1; D: 5.1; E: -7.2; F: 2560; G: -2.0
[54] COc1ccc(OC)c(NC(=O)c2ccc3c(=O)n(CCc4ccccc4)c(=S)[nH]c3c2)c1
  A: 4.3; B: -11.6; C: 1.5; D: 6.3; E: -6.3; F: 10468; G: -0.8
[55] COc1cc(CNCCN(C)C)c(Br)cc1OCC(=O)NCc1ccccc1
  A: -21.2; B: 2.0; C: 0.6; D: 4.8; E: 6.3; F: 6743; G: 0.9
[56] COc1ccc(CNC(=S)Nc2ccc(OC)cc2)cc1
  A: 2.0; B: 0.7; C: 2.9; D: 9.6; E: 1.9; F: 2795; G: 6.1
[57] CCC(=O)NCCc1nc2cc(NC(=O)c3ccccc3OC)ccc2n1C
  A: -18.7; B: -0.5; C: 2.7; D: -3.7; E: -1.9; F: 10025; G: -3.8
[58] CC[C@@](C)(NS(=O)(=O)OCC(Cl)(Cl)Cl)c1ccccc1
  A: -1.1; B: /; C: /; D: -9.4; E: /; F: 3988; G: /
[59] O=S(=O)(NCc1ccccc1)c1ccc(S(=O)(=O)N(Cc2ccccn2)C2CCCC2)cc1
  A: -11.1; B: 2.6; C: 1.8; D: 2.1; E: 2.0; F: 10877; G: 6.3

Rows are unselected; overall some 4% were active at least once.
